AID504770 – E. coli YBA685 growth inhibition, screen for V. cholerae RctB inhibitors; E. coli YBA685 rctB-dependent plasmid, OD600 growth, 3 h; stronger effect = lower value; 0.27% of 130,000 active; z-score (test concentration not listed); AID 504770;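 active means z-score under -2 on both plates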;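 further: wells of about 30 µL received 100 nL stock; score is relative to mean and SD of the test wells; the first replicate is given; strong numbers were not always called active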
CapD inh – blocks the Bacillus anthracis CapD enzyme. purified CapD enzyme, fluorescence intensity read-out; stronger effect = lower value; some hits fall short of the stated cut. z-score (concentration not given with the values). 0.23% of 140,000 active. AID 492967;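 active means z-score under -4 in either of two replicates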;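 further: stock transfer was 100 nL into about 40 µL; score is relative to mean and spread of the plate; one replicate is shown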
* hit, by the source's call; · = no result given; & = joins results of further samples. Random draw from the library, and some 0.37% of all compounds hit somewhere here.

SMILES	AID504770	CapD inh
Cc1sc2ncnc(NCC(C)(C)N3CCOCC3)c2c1C	0.5	·
CCn1c(Cn2ncc(Cl)c(Cl)c2=O)nc2cc(S(=O)(=O)N(C)C)ccc21	-0.65	·
Cc1c(C#N)c(NC(=O)c2cccc(Cl)c2)n(Cc2ccccc2)c1C	·	-0.14
CCCc1cc2c(cc1NC(=O)C(C)(C)C(=O)Nc1cc3c(cc1CCC)OCO3)OCO2	-1.65	0.02
COc1ccccc1NC(=O)C1=C(C)Nc2ccccc2S1	1.05	-1.1
CCCN(CCC)C(=O)c1cc(-c2ccccc2)n[nH]1	-1.9	-0.025
CCOC(=O)N1CCC(N(CCN(C)C)C(=S)Nc2ccc(OC)c(Cl)c2)CC1	-0.3	0.18
O=C(CN1CCOCC1)C12CC3CC(CC(C3)C1)C2	-0.85	-0.61
Cc1nc(Cc2nnc(SCC(=O)c3ccc4c(c3)NC(=O)CO4)o2)cs1	0	·
Cc1cc(C)nc(NC(N)=NC2CCCCC2)n1	-0.25	·
CCCn1c2ccccc2c2n[nH]c(=S)nc21	·	-0.04
COc1ccc(-c2nnc3ccc4ccccc4n23)cc1	·	4.09
CCOC(=O)C(C#N)C(c1ccc(F)cc1)C1CCOC(C)(C)C1 (centres undefined)	0.75	0.005
COC(=O)c1ccccc1S(=O)(=O)N1CCC(C(=O)Nc2nnc(C)o2)CC1	-0.55	·
CCn1nnnc1SCC(=O)NC1Cc2ccccc2C1	·	-0.435
O=C(Cn1ncc2ccccc21)N1CCc2ccccc21	-0.25	5.63
CC(C)(C)/C=N/NS(=O)(=O)c1ccc(-c2ccccn2)s1	2.6	0.175
Cc1ccc(-c2nccnn2)cc1	-1.15	-1.16
COC(=O)/C=c1\sc2nc3cc(Cl)c(Cl)cc3n2c1=O	2.35	0.265
O=C1N=c2ccccc2=C1c1sc(=S)[nH]c1O	1	-0.775

5 compounds drawn at random from those above:
SMILES	AID504770	CapD inh
CC(C)(C)/C=N/NS(=O)(=O)c1ccc(-c2ccccn2)s1	2.6	0.175
CCCn1c2ccccc2c2n[nH]c(=S)nc21	·	-0.04
O=C(CN1CCOCC1)C12CC3CC(CC(C3)C1)C2	-0.85	-0.61
O=C1N=c2ccccc2=C1c1sc(=S)[nH]c1O	1	-0.775
COC(=O)c1ccccc1S(=O)(=O)N1CCC(C(=O)Nc2nnc(C)o2)CC1	-0.55	·

Taken from the results shown, six compounds:
SMILES	AID504770	CapD inh
O=C(CN1CCOCC1)C12CC3CC(CC(C3)C1)C2	-0.85	-0.61
Cc1nc(Cc2nnc(SCC(=O)c3ccc4c(c3)NC(=O)CO4)o2)cs1	0	·
Cc1cc(C)nc(NC(N)=NC2CCCCC2)n1	-0.25	·
CCCn1c2ccccc2c2n[nH]c(=S)nc21	·	-0.04
COc1ccc(-c2nnc3ccc4ccccc4n23)cc1	·	4.09
CCOC(=O)C(C#N)C(c1ccc(F)cc1)C1CCOC(C)(C)C1 (centres undefined)	0.75	0.005

Additional entries follow:
SMILES	AID504770	CapD inh
O=C(CSc1ncc(-c2ccc(Br)cc2)[nH]1)N(Cc1ccco1)CC(F)(F)F	0.45	·
CCn1c(SCc2nc3ccccc3c(=O)[nH]2)nnc1C(C)NC(=O)c1ccccc1 (centres undefined)	0.1	·
COc1cc(OC)nc(CN2CC(C)OC(C)C2)n1 (centres undefined)	·	-0.615
O=C(N/N=C/c1ccco1)c1n[nH]c2c1CCC2	-1.05	-1.38
CC(=O)Nc1ccc(OC(=O)c2cccnc2)cc1	1.7	0.08
CSc1nnc2n(/N=C/c3c[nH]c4ccccc34)cnn12	1	-0.12
CCOC(=O)N1CCC(NC(=O)c2oc3c(c2C)-c2[nH]ncc2CC3)CC1	0.45	0.875
CC(C)(CO)NC(=O)c1ccc(Cl)cc1	-1.15	0.945
CC1CCCCN1S(=O)(=O)c1ccc(CCN)cc1 (centres undefined)	2.3	-0.225
COC(=O)C1=C(N)OC2=C(C(=O)CCC2)C1c1ccc(OC)cc1 (centres undefined)	1.65	·
O=C(c1cc(=O)c2ccccc2o1)N1CCCC1	0	0.045
COc1ccc2c(c1OC)C(=O)N(c1ccc(O)cc1)C2	0.7	·
CCc1ccc(S(=O)(=O)N(C(=O)c2ccncc2)c2ccc3oc(C)c(C(C)=O)c3c2)cc1	·	-0.59
O=C(Nc1sc2c(c1C(=O)Nc1ccccc1)CCCCC2)c1ccccc1F	·	0
O=C(COc1ccccc1)Nc1ccc2c(c1)C(=O)NC2=O	-0.1	8.17
CCCCc1nnc(NC(=O)C=C(C)C)s1	1.25	-0.715
OCn1c2c(c3ccccc31)CCCC2	-0.85	-0.585
CCOc1ccc(/C(O)=C2\C(=O)C(=O)N(c3ccccc3)C2(O)C(=O)OC)cc1 (centres undefined)	·	-0.31
N#Cc1ccc(C=Nc2cccc(C(N)=O)c2)cc1	-0.45	2.53
CCOC(=O)CCn1nc(-c2ccc(Cl)cc2)cc1N	0.35	0.26

Whole records, quoted from the list. Order of screens: AID504770, CapD inh
Listed for `COC(=O)C1=C(N)OC2=C(C(=O)CCC2)C1c1ccc(OC)cc1` (centres undefined) : 1.65, ·
Listed for `CC(C)(CO)NC(=O)c1ccc(Cl)cc1` : -1.15, 0.945
Listed for `CCOC(=O)N1CCC(NC(=O)c2oc3c(c2C)-c2[nH]ncc2CC3)CC1` : 0.45, 0.875

The listing continues.
SMILES	AID504770	CapD inh
COc1ccc(-c2csc(COC(=O)C(C)(C)C)n2)cc1	-0.65	0.88
COc1ccc(OC)c(C2CC(=O)Nc3c2ccc2ccccc32)c1 (centres undefined)	·	0.145
COc1ccc(OC)c(NC(=O)CSc2n[nH]c(N)n2)c1	·	-0.63
O=C(N/N=C/c1ccccc1)c1sccc1OCc1ccc(F)cc1	·	-0.03
C=CCN(CC(=O)Nc1ccc2c(c1)OCO2)S(=O)(=O)c1ccccc1F	-0.55	·
NC(=O)C1CCN(C(=O)CCc2nnc3n(Cc4ccccc4)c(=O)c4ccccc4n23)CC1	-0.5	46.1
Cc1ccc(Nc2c(-c3ccccc3)nc3ccccn23)cc1	-0.55	-1.23
COc1ccc(-c2nnc(SCC(=O)NCC(F)(F)F)o2)cc1	0.75	·
COC(=O)C(C)Sc1ncc(-c2ccccc2)nn1 (centres undefined)	0.25	·
Cc1csc2sc(CO)c(C)c12	·	-0.015
CCCOc1ccc(N)cc1N	0.1	0.3
CCOC(=O)C1=C(O)C(=O)N(Cc2ccccc2)C1	·	0.265
O=C1CN(C(=O)c2cc([N+](=O)[O-])cc([N+](=O)[O-])c2Cl)c2ccccc2N1	·	0.05
O=C(c1cc(-c2ccccc2)c(C(F)(F)F)s1)N1CCCC1	-0.4	0.245
O=C(CC(C(=O)O)C1CCCO1)NC1CCCCC1 (centres undefined)	0	0.335
O=C(C1CCCCC1)N1CCN(C(=O)C2CCCCC2)CC1	-0.8	·
COP(=O)(OC)C(Nc1cccc(C(F)(F)F)c1)c1ccc([N+](=O)[O-])cc1 (centres undefined)	·	-0.655
CCOc1ccc(N(C)S(=O)(=O)c2ccc3[nH]cc(C(=O)NCCc4ccc(OC)c(OC)c4)c(=O)c3c2)cc1	·	-0.09
CC(=O)Nc1ccc(-c2nn[nH]n2)cc1	1.05	·
Nc1nn(-c2ccc(Cl)cc2)nc1C(=O)c1ccccc1	-0.8	-0.68
CC(C)NC(=S)Nc1cccc2cnccc12	0.1	·
COC(=O)C1=C(N)CCCC1	-0.45	0.715
CN(C)CC1CCCCC1O (centres undefined)	0.9	-0.1
CC1Cn2c(COc3ccccc3)nnc2S1 (centres undefined)	1.6	-0.35
CSCCC(NC(=O)c1ccc(C(F)(F)F)cc1)C(=O)N/N=C/c1cn(C)c2ccccc12 (centres undefined)	·	-0.72
CN1CCN(NC(=O)CCN2C(=O)/C(=C/c3ccc(Cl)cc3)SC2=S)CC1	·	-0.145
CC(C)N(C(=O)Cn1ccnc1)c1ccccc1	1.45	·
CC12CCCCC1(O)N(O)C(C(=O)c1ccccc1)=N2 (centres undefined)	-0.35	-0.08
CCn1cc(CN(C)C(=S)Nc2ccc(OC)c(OC)c2)c(C)n1	-1.05	-0.15
COC(=O)CC1COc2ccccc2N1C(=O)c1ccc(Br)cc1 (centres undefined)	·	-0.245
COCc1nc2ccccc2n1Cc1ccccc1Cl	-0.55	-0.83
COc1cc(C)nc(NC(=O)Nc2sc(NS(=O)(=O)c3ccc(C)cc3)nc2C)n1	·	0.44
Cc1cccc(OCCCC(=O)Nc2ccc3c(c2)OCO3)c1	1.6	0.29
CN1CCC(N(C)CC(O)COC2CCCc3ccccc32)CC1 (centres undefined)	-0.25	·
NC(=O)C1(N2CCCCC2)CCN(C(=O)c2ccc3c(c2)[nH]c(=S)n2c4ccccc4nc32)CC1	·	-0.6
Cc1cccc(Cl)c1S(=O)(=O)N1CCC(O)(c2ccc(Cl)cc2)CC1	·	-0.95
Cc1cccc(N2CCN(CCNC(=O)C3CCN(c4nc5cccnc5s4)CC3)CC2)c1C	-0.75	0.905
CCOC(=O)/C(=N\Nc1ccccc1Cl)N(C)C1CCS(=O)(=O)C1 (centres undefined)	0.3	·
Cc1onc(-c2ccccc2Cl)c1C(=O)NCC1CCCO1 (centres undefined)	0	0.22
CCOC(=O)C1=CN(c2cc(C)ccc2C)C=C(C(=O)OCC)C1c1ccc(OC)c(OC)c1OC	·	31.9
CN(C)S(=O)(=O)c1cccc(C(=O)N2CCC(C(N)=O)CC2)c1	-2.1	·
CCOC(=O)c1sc(NC(=O)CSc2nnc(CNC(=O)c3ccc(C)c(C)c3)n2C)c(C(=O)OCC)c1C	·	-0.835
CCOc1nc(NCCO)nc(Nc2ccc([N+](=O)[O-])cc2)n1	·	-1.71
Oc1ccc2ccccc2c1Sc1nnnn1-c1ccccc1	0.15	·
O=C(O)/C=C/C(=O)Nc1nccs1	-0.05	-0.045
COc1cccc(-n2nc(C(=O)N3CCC(C(N)=O)CC3)c3ccccc3c2=O)c1	-0.35	0.5
O=C(NCC1CC1)Nc1cccs1	-0.45	0.935
C=CCN(C(=O)c1cc2c(=O)oc3ccc(C)cc3c2s1)c1ccccc1	-1	0.56
CS(=O)(=O)Nc1ccc(/C(N)=N/OC(=O)c2ccc(Cl)cc2)cc1	1.45	-0.7
CCC(=O)Nc1cccc(C(=O)N/N=C/c2cccc(OC)c2OC)c1	·	0.625
Cc1ccccc1N1CC23C=CC(O2)C(C(=O)OC(C)C)C3C1=O (centres undefined)	-0.5	0.06
CCOC(=O)c1oc2ccc(C=NC(C)(C)C)c(Cl)c2c1C	-0.45	-0.34
CCCCC(CC)C(=O)Nc1ccc(C#N)cc1 (centres undefined)	-0.7	-0.14
O=S(=O)(c1ccc(Cl)cc1)N1CCCC1c1cccs1 (centres undefined)	-0.95	0.25
COc1ccc2cc3c(N)nn(C(=O)CN4CCOCC4)c3nc2c1	0.6	0.465
CCOC(=O)c1c(C)oc2c1c(C=NCc1ccccn1)c(O)c1ccccc12	-0.4	-0.79
CCc1ccc2c(O)c3c(cc2c1C(=O)OC)C(=O)c1c(O)ccc(O)c1C3=O	0.2	·
COc1ccc(CCN2COc3c(cc(Cl)c4cccnc34)C2)cc1OC	0.6	-0.12
CCOc1ccc(C(=O)Nc2c3c(nn2-c2ccc(OC)cc2)CS(=O)(=O)C3)cc1OCC	·	-0.105
COc1cccc(C2=NN(C(=O)Cc3ccccc3)C(O)(C(F)(F)F)C2)c1 (centres undefined)	·	1.25

Further compounds.
SMILES	AID504770	CapD inh
O=C1CC2(CCCC2)C(=O)N1CCCNc1ncc(C(F)(F)F)cc1Cl	·	-0.13
CC(c1ccc(S(C)(=O)=O)cc1)N(CC1CCCO1)C(=O)c1ccccc1 (centres undefined)	·	-0.305
Cc1ccc(-c2nc(SCc3ccccc3)nc(Cl)c2C#N)cc1	·	2.52
CCc1nc(SCC(N)=O)n[nH]1	0.2	0.77
COC(=O)c1ccc(COc2cc(C)cc(C)c2)o1	0.1	15.5
O=C(NCc1ccccc1)c1ccc2nc(N3CCOCC3)sc2c1	-0.25	-0.13
O=C(Oc1cccc2cccnc12)N1CCCCCC1	-0.4	5.26
Cc1cc(C)c2c(n1)sc1c(=O)n(CC(=O)c3ccccc3)cnc12	0.25	9.85
CCOC(=O)c1[nH]c(C(=O)O)c(CCC(=O)OC)c1C	0.45	0.09
Cc1ccc(/C=N/NC(=O)c2ccccc2CCc2ccccc2)cc1[N+](=O)[O-]	·	0.39
O=C(Nc1nnc(CCS(=O)(=O)c2ccc3ccccc3c2)s1)c1ccc(F)cc1	·	-0.18
COC(=O)NN1C(=O)c2ccccc2C1=O	0.2	0.485
Cc1ccc(CCNC(=O)C(C)c2c(C)n[nH]c2C)cc1 (centres undefined)	-0.5	0.7
CCSc1ccc2c3c(cccc13)C(=O)N(NCCO)C2=O	·	-1.04
CC(=O)Nc1ccc(OCC(O)CNC(C)C)cc1 (centres undefined)	·	1.94&-0.08
CCOC1=NN(c2ccc([N+](=O)[O-])cc2)C(=O)/C1=C\c1cc(OC)c(OC)cc1OC	·	0.22
Nc1c(-c2cccc(C(F)(F)F)c2)cnn1-c1ccccc1	-1.2	0.195
N#CCc1nc(=O)c2ccccc2s1	-2.55	-1.47
CC12CC[C@H]3[C@@H](CCC4(O)C[C@H](O)CCC34/C=N/Nc3ccccc3)C1(O)CCC2C1=CC(=O)OC1 (some centres undefined)	-1.05	0.445
CCOc1ccc(-c2nc3ccc(Cl)cn3c2C)cc1	·	134
CNC(=S)Nc1cnn(Cc2cccc3ccccc23)c1	1.45	0.13
COC(=O)/C(C#N)=C\C=C\c1ccccc1	0.5	-2.2
Cc1ccc(OS(=O)(=O)c2cc(Cl)c(Cl)cc2Cl)c(Br)c1	·	-0.055
COc1cc(CN2CCN(CCOC(=O)NNC(=O)c3ccc(Cl)cc3)CC2)cc2c1OCO2	·	0.405
CCOc1cc(CN2CCN(CC(=O)N3CC(C)CC(C)C3)CC2)cc(Br)c1OC (centres undefined)	-0.25	·
O=S(=O)(NN1CCOCC1)c1cccc2cccnc12	-0.6	-0.515
N/N=C(\C(=O)O)c1ccccc1N	1.05	-0.975
CCCc1c(C(=O)NNc2ccc(C)cc2)cnn1-c1ccccc1	-0.6	-0.095

High-throughput results as filed in PubChem BioAssay.
